ClpP mod – qHTS Assay for Activators of ClpP; ATP-dependent Clp protease proteolytic subunit (Bacillus subtilis (strain 168)), P80244; purified B. subtilis ClpP, FRET peptide cleavage, 20 min; Potency, µM (titrated, usually from 57.5 µM), without a hit: at the top dose activity change, negative = active; 340,000 tested, 1.9% active; active = well fitted falling curve with a large enough effect; inconclusive = small, poorly fitted or top-dose-only effect; inactive = no such curve, though single readings can be large or run the other way; note: potency is the fitted concentration of half-maximal effect; the source files actives as falling curves though it sought activators and does not explain the sign; nearly all actives have a fitted effect of over 65% in size; many hits overshoot -100%
Target sequence (P80244 whole entry, looked up): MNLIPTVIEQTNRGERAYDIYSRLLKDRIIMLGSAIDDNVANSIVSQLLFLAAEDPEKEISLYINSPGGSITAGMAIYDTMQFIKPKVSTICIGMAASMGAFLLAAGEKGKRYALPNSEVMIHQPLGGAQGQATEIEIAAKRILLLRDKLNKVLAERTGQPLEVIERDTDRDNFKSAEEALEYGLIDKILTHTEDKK
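ClpP 10 microg/mL final, pH 8 Tris/KCl buffer with BSA, glycerol, Tween-20; compound pinned in; FRET-FV substrate; RT 20 min; Ex320/Em430; ΔFRET vs ADEP 5.8 microM, DMSO, no enzyme.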
TRPV1 PAM – enhances activation of the human vanilloid receptor TRPV1. potentiation, % at 8.33 µM. TRPV1-expressing cells, Fluo-8 calcium influx, capsaicin EC20 potentiation; host cell line not named in the record; control for the full effect not named in the record. AID 540277. Q8NER1. 320,000 tested, 0.02% active; active means potentiation above 80%; inconclusive means 30% to 80%; inactive means below 30%; note: 0% is about no effect
Target sequence (Q8NER1 whole entry, looked up): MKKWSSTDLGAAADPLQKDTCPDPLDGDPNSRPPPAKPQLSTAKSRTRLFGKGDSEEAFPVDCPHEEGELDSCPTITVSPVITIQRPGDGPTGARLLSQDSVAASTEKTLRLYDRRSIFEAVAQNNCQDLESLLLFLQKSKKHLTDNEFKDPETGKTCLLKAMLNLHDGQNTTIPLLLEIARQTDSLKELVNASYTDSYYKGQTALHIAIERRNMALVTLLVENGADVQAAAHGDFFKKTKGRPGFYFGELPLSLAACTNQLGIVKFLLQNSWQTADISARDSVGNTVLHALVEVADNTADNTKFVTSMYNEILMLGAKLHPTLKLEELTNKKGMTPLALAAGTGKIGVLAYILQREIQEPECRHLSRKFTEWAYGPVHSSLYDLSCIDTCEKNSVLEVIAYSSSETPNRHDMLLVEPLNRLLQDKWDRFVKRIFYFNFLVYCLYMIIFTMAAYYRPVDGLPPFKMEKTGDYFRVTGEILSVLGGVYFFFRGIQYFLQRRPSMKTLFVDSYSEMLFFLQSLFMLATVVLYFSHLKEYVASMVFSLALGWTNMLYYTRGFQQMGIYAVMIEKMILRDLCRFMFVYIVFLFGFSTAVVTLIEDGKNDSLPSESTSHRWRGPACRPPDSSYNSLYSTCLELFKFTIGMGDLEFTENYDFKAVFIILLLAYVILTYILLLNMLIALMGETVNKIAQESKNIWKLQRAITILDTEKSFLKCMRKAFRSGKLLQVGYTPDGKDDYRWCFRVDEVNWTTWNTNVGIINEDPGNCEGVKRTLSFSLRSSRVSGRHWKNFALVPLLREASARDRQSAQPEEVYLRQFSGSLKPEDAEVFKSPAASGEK
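Fluo-8 calcium influx in TRPV1-expressing cells, kinetic read (ex 480/em 520 nm). Compound added and read 3 min for agonist activity, followed by capsaicin at EC20 final and 2 min further read for enhancement.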
gsp antag – antagonizes gsp, the McCune-Albright syndrome mutation | AID 624288 | Potency, µM (titrated, usually from 76.9 µM), for inactives: at the top dose activity change, negative = inhibition, hits mostly inhibitors | gsp-mutant cells, cAMP HTRF, 30 min; control for the full effect not named in the record | 340,000 tested, 0.4% active; active = falling curve of any shape with a large fitted effect; inconclusive = falling curve, mostly with a smaller effect; inactive = flat or rising curve; cell line not stated here;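 note: intracellular cAMP measured with PDE inhibitor Ro 20-1724 present during compound exposure; potency is the fitted concentration of half-maximal effect; % is set by controls: 0 for no effect and ±100 for the full control effect; nearly all actives have a fitted effect of over 65% in size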
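G418-selected cells were plated in DMEM/10% FBS for 16-24 h at 37C, then treated with compounds plus the PDE inhibitor […] (300 uM solution added) for 30 min at 37C. Intracellular cAMP was measured by HTRF after 30 min lysis at room temperature.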
gsp agonist – activates gsp, the McCune-Albright syndrome mutation; Potency, µM (series often up to 76.9 µM), for the others: at the highest dose activation (cAMP increase), usual class: activators; 340,000 tested, 0.13% active; gsp mutant cells, cAMP HTRF, 30 min; control for the full effect not named in the record; active = well fitted activation curve with a large enough effect; inconclusive = small, poorly fitted or top-dose-only effect, or another doubt; inactive = no such curve, though single readings can be large or run the other way; cell line not stated here;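 note: phosphodiesterase inhibitor Ro 20-1724 added with compounds to block cAMP breakdown; potency is the fitted concentration of half-maximal effect; nearly all actives have a fitted effect of over 60% in size; about a fifth of the inactives were tested at one dose only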
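Cells in DMEM/10% FBS with G418 were pretreated with compounds in DMSO plus […] (300 uM stock) for 30 min at 37C. cAMP was measured by HTRF (cAMP-d2 plus anti-cAMP antibody-K) after 30 min at room temperature.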
Menin MLL FP FL – menin-MLL binding inhibition, fluorescein peptide; Fluorescence polarization, fluorescein-MLL peptide displacement from menin; FP activity change, % at 61.4 µM; 290,000 tested, under 10 active; AID 1766; inconclusive = falling polarisation curve, or a change in total fluorescence; inactive = total fluorescence flat and polarisation flat or rising; no compound was filed as active; the % refers to the polarisation; negative = inhibition;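 note: % of control where 0% means no effect; inhibitors lower the polarisation; unlabelled MLL peptide was the positive control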
Sfp PPTase inh – blocks B. subtilis Sfp PPTase activity; Biochemical Sfp PPTase activity, qHTS; Potency, µM, for inactives: max response, negative = inhibition, hits mostly inhibitors; 310,000 tested, 3.5% active; AID 1490; active = well fitted inhibition curve with a large enough effect; inconclusive = small, poorly fitted or top-dose-only effect, or another doubt; inactive = no such curve, though single readings can be large or run the other way;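 note: the enzyme is Sfp with the accession as filed and its product quenches rhodamine fluorescence; potency is the fitted concentration of half-maximal effect; 0% = enzyme reaction without inhibitor and -100% = no enzyme wells; top concentration of the series not given in the record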
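Reaction rates are the 30-min fluorescence difference (ex 525, em 598 nm) in wells containing 15 nM Sfp, 5 uM rhodamine-CoA and 12.5 uM BHQ-2-YbbR at pH 7.6 with 10 mM MgCl2.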
CtBP-E1A inh – inhibitors of CtBP/E1A interaction; AlphaScreen GST-E1A/His-CtBP binding, 1536-well; hits give low values; control for the full effect not named in the record; 340,000 tested, 0.49% active; activity change, % (concentration not given with the values); in the data active means activity change below about -65%; inconclusive means about -30% to -65%; inactive means above about -30%; note: % is set by controls: 0 for no effect and ±100 for the full control effect
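GST-E1A and His-tagged CtBP (125 nM each as 5X stock) were preincubated with pin-transferred compound for 2 h at 37 °C in the dark, then glutathione donor and nickel acceptor beads were added for 1 h before AlphaScreen reading.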
* hit, by the source's call; ? = inconclusive; . = no result given; [ ] = another dose, or the depositor's remark. Not a hit list. Share with any hit: about 5.3%.

SMILES | ClpP mod | TRPV1 PAM | gsp antag | gsp agonist | Menin MLL FP FL | Sfp PPTase inh | CtBP-E1A inh
COc1ccccc1OCCNC(=O)c1cc(SC)ccc1Cl | 0.8% | 4 | 0% | ? | -0.9 | 25% | 1
Clc1ccc2c(c1)CNc1c(ncnc1N1CCOCC1)O2 | -2.6% | 29 | ? | 10% | -7.1 | 2% | -9
COc1ccc(-n2nc(C(=O)O)cc2-c2ccccc2)cc1 | -7.0% | ? | -24% | -1% | 1.3 | 37%[activator] | .
CCN(CC)c1ccc(NC(=O)C2CCCN(S(=O)(=O)c3cccnc3)C2)c(C)c1 (configuration not stated) | -0.7% | 15 | -13% | -32%[inhibitor] | -2.4 | 0% | -10
N#C/C(=C/c1cn(CC(=O)O)c2ccccc12)C(=O)NCc1ccccc1 | . | ? | -7% | -3%[15.4 µM] | 12 | 11% | -1
O=c1[nH]c(=O)c2cn[nH]c2[nH]1 | 4.8% | -4 | -2% | . | . | . | -7
CCCCn1c(N)c(N(CCOC)C(=O)c2cc3c(s2)CCC3)c(=O)[nH]c1=O | 0.6% | -3 | 1% | 3%[15.4 µM] | . | . | 9
O=C(O)c1ccc(NC(=O)c2cccc(C(=O)Nc3ccc(C(=O)O)cc3)n2)cc1 | 0.6% | 5 | 19% | -259%[inhibitor] | 9.4 | -6% | .
O=P(O)(CP(=O)(c1ccccc1)c1ccccc1)c1ccccc1 | -0.6% | 6 | -4% | 11% | 6.0 | -5% | 8
Cc1c(C(=O)c2ccc(Cl)cc2[N+](=O)[O-])c2ccccn2c1CCC#N | -3.1% | ? | -3% | ? | 0.4 | 6% | -24

Looked up one by one from above:
SMILES | ClpP mod | TRPV1 PAM | gsp antag | gsp agonist | Menin MLL FP FL | Sfp PPTase inh | CtBP-E1A inh
CCN(CC)c1ccc(NC(=O)C2CCCN(S(=O)(=O)c3cccnc3)C2)c(C)c1 (configuration not stated) | -0.7% | 15 | -13% | -32%[inhibitor] | -2.4 | 0% | -10
CCCCn1c(N)c(N(CCOC)C(=O)c2cc3c(s2)CCC3)c(=O)[nH]c1=O | 0.6% | -3 | 1% | 3%[15.4 µM] | . | . | 9
O=c1[nH]c(=O)c2cn[nH]c2[nH]1 | 4.8% | -4 | -2% | . | . | . | -7

The list continues:
SMILES | ClpP mod | TRPV1 PAM | gsp antag | gsp agonist | Menin MLL FP FL | Sfp PPTase inh | CtBP-E1A inh
Cc1ccc(Nc2nc(-c3ccc(O)cc3O)cs2)nc1 | . | -5 | -14% | -8%[15.4 µM] | 3.4 | ? | -20
COC(=O)c1cc(S(=O)(=O)n2nc(C)cc2C)c(Cl)cc1Cl | 24% | 18 | 0% | 0% | 4.4 | -6% | 10
CN(Cc1cccs1)C(=O)c1ccc(Cl)c(S(=O)(=O)N2CCCCCC2)c1 | . | . | ? | -17% | . | . | 3
COc1ccc(-c2cnc(C(N)=O)c(=O)[nH]2)cc1 | 4.8% | . | . | 13% | . | . | -1
COCCCn1c(=S)[nH]c2c(sc3ccccc32)c1=O | 2.1% | -11 | 0% | 43%[15.4 µM] | -1.7 | 79µM* | -2
C=CCNC(=O)NC(=O)COC(=O)/C(C#N)=C/c1cc(C)n(CC(C)C)c1C | 0.1% | 4 | 2% | -24% | 1.8 | 19% | -6
Cc1ccc(C(NC(=O)CN2C(=O)NC3(CCCC3)C2=O)c2ccccc2)cc1 (configuration not stated) | 0.2% | -2 | -1% | -32%[inhibitor] | . | . | .
Cc1[nH]c2ccccc2c1C(=O)COC(=O)c1c(-c2ccccc2)noc1C | . | -2 | ? | -2%[15.4 µM] | 8.5 | -1% | 0
Oc1[nH]c2ccccc2c1N=Nc1ccc(C(F)(F)F)cn1 | 1.6% | 7 | 3% | -14% | 0.2 | 9% | -5
CCOc1cccc(CN2CCCC(N3CCc4cc(OC)c(OC)cc4C3)C2)c1O (configuration not stated) | . | 9 | 4% | ? | -3.6 | -20% | -29
COc1ccccc1/C=C/C(=O)OCC(=O)NC1CC1 | . | 4 | 8% | 15%[15.4 µM] | . | . | 2
CN1CCN(C(c2cccs2)c2nnnn2Cc2ccc(F)cc2)CC1 (configuration not stated) | . | -20 | 12% | -7%[15.4 µM] | -9.3 | 9% | -12
O=C(Nc1sc2c(c1C(=O)NCCCO)CCCC2)c1ccccc1 | . | -18 | ? | 0% | 1.1 | -3% | 3
CC(=O)c1cccc(NC(=O)CCCN(C)S(=O)(=O)c2ccc(F)cc2)c1 | . | 4 | -2% | 25% | -4.0 | 15% | -20
CC(C)CNC(=O)/C=C/c1cccs1 | 0.5% | -28 | 3% | -1% | -5.0 | 13% | 4
Cc1nn(CC(=O)NC2(C)CCS(=O)(=O)C2)c(C)c1S(=O)(=O)N(C)C (configuration not stated) | -1.2% | . | 10% | -9% | . | . | 3
CC[C@]12c3[nH]c4ccc(OC)cc4c3CCN1C(=O)C(CC(=O)NCCCn1ccnc1)C[C@@H]2C(=O)N1CCN(C(=O)C2CC2)CC1 (some centres not stated) | -0.4% | . | 6% | . | . | . | 3
COc1cc(/C=N/Nc2nc(C)cc(C)n2)cc(OC)c1OC | -0.3% | 5 | 8% | 8% | 1.8 | ? | .
Cc1c(Cl)ccc2sc(NC(=O)C3CC3)nc12 | -0.9% | -8 | -15% | -27% | 1.8 | 17% | 2
CC(NC(=O)Cc1ccccc1)c1nc2ccccc2[nH]1 (configuration not stated) | 1.7% | 26 | 12% | -22% | -5.9 | -13% | 1
O=C(CN1CCN(S(=O)(=O)c2ccc(F)cc2)CC1)N1CCOCC1 | 0.7% | -10 | 14% | -2%[15.4 µM] | . | 11% | 9
CCc1nn(CC(=O)N2CCN(c3ccc(OC)cc3)CC2)c(=O)c2cc3occc3n12 | -5.2% | 3 | -2% | -10% | . | 13% | -6
CCC(=O)Nc1cc2nn(-c3ccc(C)cc3)nc2cc1C | 4.7% | -7 | -20% | -3% | 0.4 | 17% | 10
COc1ccc(F)cc1CN1CCN(c2ncnc3scc(-c4ccccc4)c23)CC1 | . | -2 | ? | -9%[15.4 µM] | 1.7 | 16% | 1
COc1ccc(S(=O)(=O)N(CCc2ccccc2)CC(=O)N2CCOCC2)cc1 | -2.1% | -15 | -2% | -12% | 4.4 | 17% | 5
COCCOC(=O)C1=C(C)NC(=O)NC1c1c(Cl)nc2ccccn2c1=O (configuration not stated) | -4.8% | 1 | -10% | ? | 3.5 | 10% | -3
CCCCOC(=O)c1cc(-c2ccc(/C=N/n3cnnc3)o2)ccc1Cl | ? | . | -4% | -4% | . | . | -14
CC(C)c1ccc(/C=C/C(=O)N2CCc3ccccc3C2)cc1 | 3.2% | 16 | ? | -38%[inhibitor] | 4.6 | 19% | 0
COc1cc(NS(=O)(=O)c2ccc(F)cc2)c(OC)cc1NC(=O)C1CC1 | . | 7 | . | . | 1.4 | 6% | .
COCCN1CCN(C(=O)c2cc(COc3ccc(F)c(F)c3)on2)CC1 | -4.6% | -4 | 1% | 11% | . | 1% | 0
O=C(N/N=C/c1ccccn1)c1cccc(S(=O)(=O)Nc2ccccc2Cl)c1 | ? | 1 | -10% | -4%[15.4 µM] | -9.0 | 16% | 4
Cc1nn(-c2ccccc2)c(C)c1/C=N/NC(=O)c1cc(-c2cccc3ccccc23)n[nH]1 | . | 9 | -1% | 15% | -3.9 | 3% | -2
Cc1cccn2c(=O)c(/C=C3\SC(=S)N(CC(C)C)C3=O)c(NCCCOC(C)C)nc12 | -3.5% | 10 | 3% | 2% | ? | 1% | -8
O=C(CSc1ncn[nH]1)N1CCCCC1 | . | -8 | 13% | 7%[15.4 µM] | -1.5 | 9% | 3
O=C(CSc1ccccc1)NCC1(N2CCOCC2)CCCCC1 | 0.5% | -2 | 6% | 3% | . | . | 5
CCCc1c(O)nc(SCC(=O)NCc2ccco2)[nH]c1=O | . | -7 | 3% | -5% | 2.0 | -14% | 8
COc1ccc(CCNC(=O)COC(=O)c2ccc(F)c(S(=O)(=O)N3CCOCC3)c2)cc1 | -2.8% | -5 | -7% | 9% | . | . | -5
N=C(N)CCCOc1ccccc1-c1ccccc1 | 0.8% | -3 | 10% | 11% | 1.7 | -1% | 9
CCOc1ccc(S(=O)(=O)N(CC(=O)N/N=C/c2cccs2)c2ccc(C)cc2)cc1 | -0.8% | 7 | -1% | 13% | -0.4 | 6% | -6
CC(C)CCCN1C(Nc2ccccc2)=NC[C@@H]1Cc1ccccc1 | -1.6% | 29 | -3% | . | 0.2 | 0% | 0
CC(=O)C1=C(C)NC(SCC(=O)Nc2nccs2)=C(C#N)C1c1ccccc1Cl (configuration not stated) | 28µM* | -2 | -11% | 6% | 0.4 | -29% | 1
CCOC(=O)Cn1nnnc1C | . | -4 | 2% | 3%[15.4 µM] | -1.9 | 15% | 6
CNS(=O)(=O)c1cccc(C(=O)OCC(=O)N2c3ccccc3NC(=O)C2(C)C)c1 | -3.8% | -6 | -9% | -14% | . | . | .
CCOCCCNC1=C(Cl)C(=O)c2ccccc2C1=O | 11% | 3 | -4% | -45%[inhibitor] | -1.4 | 45µM* | ?
COc1ccc(NC2CCCN(C(=O)c3ccc(C(C)=O)cc3)C2)cc1 (configuration not stated) | -2.2% | ? | -18% | 14% | . | 19% | -1
CCCCN(C)CCCNC(=O)c1cn(CC)c2ccc(S(=O)(=O)N3CCc4ccccc4C3)cc2c1=O | -3.3% | -5 | . | 30%[15.4 µM] | 1.2 | -24% | -3
COc1ccc(N/C(=N/c2nc(C)cc(C)n2)NC(=O)c2ccccc2)cc1 | . | -6 | 0% | 14% | 2.4 | 16% | 1
O=C(O)c1cc(S(=O)(=O)N2CCN(S(=O)(=O)c3ccccc3)CC2)ccc1Cl | 0.0% | -3 | 8% | 4% | -1.6 | 2% | 5
Cc1cc(=O)oc2cc(O)cc(OCc3ccccc3)c12 | -7.8% | . | -1% | 12% | . | . | 2
